miR-21 FLuc: raises the signal of a miR-21 reporter. HeLa miR-21 FLuc reporter, luciferase, 48 h. Potency, µM (doses to about 38.3 µM), for inactives: at the top dose reporter change, positive = more light. 340,000 tested, under 10 active. AID 2288; active = well fitted rising curve with a large enough effect; inconclusive = small, poorly fitted or top-dose-only effect; inactive = no such curve, though single readings can be large or run the other way;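 further: % of control where 0% means no effect; miR-21 action dims this reporter so a rising signal means less miR-21 action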
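HeLa cells endogenously expressing miR-21, stably carrying CMV-driven firefly luciferase with a downstream miR-21 binding site, 2000 cells/well. Titrations up to approximately 40 uM, 48 hours; luciferase luminescence read.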
Rango-impB inh: inhibitors of Rango-importin beta complex formation; actives 0.031% (n = 340,000); Potency, µM (top dose mostly 92.2 µM), for the others: at the highest dose inhibition of complex formation; Q14974; Rango CFP/YFP FRET sensor + importin beta, 45 min; active = rising FRET ratio curve, often small or poorly fitted; inconclusive = mostly compound fluorescence or quenching in the first reads; inactive = flat curves in all reads;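 further: potency means the concentration at half of the fitted maximal effect; 0% = DMSO wells and 100% = buffer wells lacking importin beta; nearly all actives have a fitted effect of over 15% in size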
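Inhibition scored from the CFP 486 nm/YFP 530 nm FRET ratio 45 min after adding 0.125 microM importin beta to 50 nM Rango biosensor preincubated 5 min with compound (room temperature, PBS with DTT, Tween-20, BSA). No-importin wells as positive control.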
GLA inh pH 4.5: inhibitors of human alpha-galactosidase A at pH 4.5; activity change, negative = inhibition, % at 105 µM; P06280; purified enzyme, 4-MU-alpha-Gal fluorescence, pH 4.5; AID 1467; 230,000 tested, under 10 active; inconclusive = small, poorly fitted or top-dose-only inhibition, or a rising curve; inactive = flat fitted curve, though single readings scatter; no compound was filed as active;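 further: 0% = full activity with enzyme and -100% = basal without enzyme; dose as in the result columns while the protocol names 77 µM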
Target sequence (P06280 whole entry, looked up): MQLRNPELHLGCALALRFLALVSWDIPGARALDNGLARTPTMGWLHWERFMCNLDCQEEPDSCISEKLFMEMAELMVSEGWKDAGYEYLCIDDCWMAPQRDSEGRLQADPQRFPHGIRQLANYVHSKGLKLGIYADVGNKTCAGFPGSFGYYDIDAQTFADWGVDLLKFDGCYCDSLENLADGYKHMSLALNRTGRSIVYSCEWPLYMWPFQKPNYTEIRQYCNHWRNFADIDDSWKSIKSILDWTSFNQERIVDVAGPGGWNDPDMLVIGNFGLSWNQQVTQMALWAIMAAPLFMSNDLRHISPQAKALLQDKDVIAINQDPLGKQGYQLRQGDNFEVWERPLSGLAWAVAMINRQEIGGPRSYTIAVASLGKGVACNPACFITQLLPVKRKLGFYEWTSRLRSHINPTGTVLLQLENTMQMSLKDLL
Rango dissoc inh: prevents RanGTP from dissociating the Rango-importin beta complex | O95149+P62826 | Biochemical FRET Rango-importin beta, RanGTP-induced dissociation | Potency, µM (series often up to 46.1 µM), without a hit: top-dose activity change, negative = inhibition | actives 0.071% (n = 340,000) | AID 540253; active means falling FRET ratio curve, often poorly fitted, with flat reads before Ran was added; inconclusive means other falling curves, or compound fluorescence or quenching; inactive means flat or rising ratio curve;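 further: potency means the concentration at half of the fitted maximal effect; % of control where 0% means no effect; nearly all actives have a fitted effect of over 45% in size; -100% = wells without RanGTP and RCC1; the record marks most hits as doubtful in a second field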
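Quantitative HTS using a FRET biosensor: 0.1 uM Rango, 0.25 uM importin beta, 0.6 uM Ran, 2 mM GTP, 0.2 uM RCC1 final, PBS with DTT, Tween-20 and BSA. Post-read taken 45 min after Ran addition.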
* = called active by the depositor; ? = inconclusive; . = no result given; [ ] = remark or other dose. A portion of the library. The share of hits here may be higher or lower than overall.

Fields: Rango dissoc inh	miR-21 FLuc	GLA inh pH 4.5	Rango-impB inh
O=C(Nc1nc(-c2cccnc2)cs1)c1ccccc1[N+](=O)[O-]
  -4%	-2%	3	-2.2%
O=C(COC(=O)c1ccncc1)c1ccc(Cl)c(Cl)c1
  -3%	-1%	5	-5.0%
C=CCN1C(=O)CN=C1Nc1cccc(C)c1
  2%	-10%	5	-0.8%
COc1ccc(NC2c3ccccc3C(=O)N2c2cccnc2)cc1 (stereo not given)
  9%	3%	3	-2.2%
COc1ccc(N2CCC(CNS(=O)(=O)c3cccc(C(F)(F)F)c3)C2)cc1 (stereo not given)
  0%	-5%	-7	5.3%
CCN(Cc1ccncc1)C(=O)c1cccc(S(=O)(=O)N2CCOCC2)c1
  -8%	-4%	-1	-1.4%
COc1nc(Nc2ccc(OC)c(Cl)c2)nc(OC)n1
  25%	-44%	-1	-1.0%
O=C1CCCN1C(=O)CSc1nnnn1-c1cccc(F)c1
  1%	.	.	1.3%
Cc1cc(Nc2ccc(Cl)cc2)n2nnnc2n1
  -27%	-10%	-2	2.2%
CCCCCCn1c(=O)c(-c2ccccc2)c(O)c2ccccc21
  20%	0%	-19	6.0%

Continued.
Fields: Rango dissoc inh	miR-21 FLuc	GLA inh pH 4.5	Rango-impB inh
C#CCN1C=C(C(=O)OCC)C(C)N(Cc2ccccc2I)S1(=O)=O (stereo not given)
  -1%	.	.	-6.0%
COc1cc(C(=O)N/N=C/c2ccc(OC(=O)c3cccc(C)c3)cc2)ccc1O
  2%	-6%	.	1.0%
Cc1ccccc1NC(=O)Cc1nc(COC(=O)Cc2c(F)cccc2Cl)cs1
  5%	.	.	2.2%
COc1cc(NC(=O)c2ccc(C)cc2C)ccc1NC(=O)c1cccs1
  -3%	-35%	.	1.1%
CC(OC(=O)c1ccc(Cl)c(S(=O)(=O)N2CCc3ccccc32)c1)C(=O)Nc1ncc(Cl)cc1Cl (stereo not given)
  -3%	-6%	0	-1.7%
O=C(CSc1nc(-c2ccccc2)cs1)Nc1nccs1
  19%	-2%	-1	-0.5%
CCCCNc1c(-c2ccc(SC(C)CC)cc2)nc2ccccn12 (stereo not given)
  ?	.	.	?
Cc1ccc(C(=O)N/C(=C\c2cn(C)c3ccccc23)C(=O)N2CCOCC2)cc1
  0%	-1%	.	-1.1%
CN(C)c1ccc(/C=N/NC(=O)c2ccc(NC(=O)c3ccccc3)cc2)cc1
  -19%	-5%	0	?
CN=C1S/C(=C\c2ccc(Sc3ccc(Cl)cc3)o2)C(=O)N1C
  .	-3%	6	.

Next section
Fields: Rango dissoc inh	miR-21 FLuc	GLA inh pH 4.5	Rango-impB inh
C#Cc1ccc([C@H]2C=C(C(=O)OCC=C)O[C@@H](OCC)[C@@H]2CCCO)cc1
  -5%	-2%	-5	0.9%
CC(C)(Oc1ccc(CCNC(=O)c2ccc(-c3ccccc3)o2)cc1)C(=O)O
  -2%	-10%	-6	1.1%
Cc1ccc2c(c1C)NC(=O)C2(O)CC(=O)c1ccc2c(c1)OCO2 (stereo not given)
  -2%	-4%	-13	-3.1%
O=C(/C=C/Nc1ccc(F)cc1)c1cccs1
  ?	.	.	?
Cc1nnc(SCc2ccccc2Cl)n1CC1CCCO1 (stereo not given)
  -1%	-11%	1	0.2%
Cc1ccc(S(=O)(=O)NCC(=O)NC2CC2)cc1
  44%	-2%	.	2.8%
O=C(c1cccc(F)c1)N1CCN(Cc2c[nH]c3ccccc23)CC1
  -5%	4%	-11	-3.6%
CCOC(=O)N(Cc1ccccc1)C1CC1
  -14%	.	.	-3.6%
Cc1oc(-c2cc(F)ccc2F)nc1CN(C)Cc1ccc2nccnc2c1
  -8%	-1%	4	-0.4%
CCC(c1nnc(SCC(=O)Nc2cccc(S(N)(=O)=O)c2)n1Cc1ccccc1)N(C)C (stereo not given)
  18%	-2%	-17	8.5%

Further compounds follow.
Fields: Rango dissoc inh	miR-21 FLuc	GLA inh pH 4.5	Rango-impB inh
Cc1ccc(CN(C)C(=O)c2cc(COc3cccc(C(F)(F)F)c3)on2)o1
  -18%	-2%	.	0.6%
Cc1nn(Cc2ccc(C(=O)Nc3ccccc3F)cc2)c(C)c1Cl
  5%	3%	6	1.8%
Nc1nc(-c2ccccc2)nc2sc3c(c12)CCCC3
  1%	-45%	-20	0.5%
COc1ccc(C(CNC(=O)c2oc3ccc(F)cc3c2C)N2CCCCC2)cc1 (stereo not given)
  5%	26%	.	?
CC12CCC(C(=O)NCc3ccccc3)(OC1=O)C2(C)C (stereo not given)
  0%	-2%	-7	0.5%
Cc1ccc(-c2cnn3c(N4CCOCC4)cc(C)nc23)cc1
  -3%	-34%	.	-0.2%
CCc1nc(SCC(=O)N2CCc3ccccc32)c2oc3ccccc3c2n1
  1%	.	.	0.0%
C#CCOCCOCCOCCNc1nc(N2CCOCC2)nc(N2CCN(C(=O)[C@H](CCCCN)n3cc([C@@H](N)CC(C)C)nn3)CC2)n1
  9%	1%	3	-1.1%
CCC(Br)C(=O)Nc1ccc(OC)cc1 (stereo not given)
  7%	3%	2[21.1 µM]	-0.5%
O=C(O)CCN=C1CCCc2ccccc2N1
  4%	0%	4	7.2%

The listing continues.
Fields: Rango dissoc inh	miR-21 FLuc	GLA inh pH 4.5	Rango-impB inh
CCOc1ccc2nc(N(CCN(CC)CC)C(=O)c3cccc([N+](=O)[O-])c3)sc2c1
  14%	-1%	1	6.9%
Cc1ccc(S(=O)(=O)Nc2cccc(C(=O)NCCN3CCOCC3)c2)cc1F
  11%	.	.	0.2%
O=C(NC1CCCC1)c1cccc(S(=O)(=O)N2CCOCC2)c1
  7%	.	.	-1.1%
COc1ccc(C(=O)COC(=O)c2ccc(OC)c(OC)c2)cc1OC
  37%	-6%	-10	-1.3%
Cn1cc([N+](=O)[O-])c(C(=O)N/N=C/c2ccncc2)n1
  -5%	1%	.	-0.9%
CCN(CC)S(=O)(=O)c1ccc(S(=O)(=O)Nc2c(C)nn(C)c2C)cc1
  9%	.	.	-4.4%
Cc1ccc(-c2nnc(N3CCC(C)CC3)c3ccccc23)cc1
  -6%	-4%	-2	3.1%
COc1ccc(C2=Nn3c(nnc3-c3ccncc3)SC2)cc1
  -12%	14%	5	0.2%
CCOC(=O)c1c(C)n(C)c2ccc(OC)c(NC(=O)CN3CCN(Cc4ccccc4)CC3)c12
  -4%	-12%	1	-1.7%
O=C(O)CCc1nnc(SCC(=O)Nc2ccc(Br)cc2)[nH]c1=O
  21%	-1%	-1	7.2%

(further entries)
Fields: Rango dissoc inh	miR-21 FLuc	GLA inh pH 4.5	Rango-impB inh
COCCn1c(SCc2ccc(OC)c(F)c2)nnc1-c1ccncc1
  -10%	-4%	.	-0.1%
CC(=O)c1cc(-c2ccccc2)n(CC(=O)Nc2cc(C)cc(C)c2)c1C
  2%	0%	-2	0.3%
COC(=O)CSc1nnc(CNC(=O)c2cccs2)n1-c1cc(OC)ccc1OC
  -2%	-2%	-10	0.5%
Cc1ccccc1OCC(=O)Nc1cccc2nsnc12
  -30%	-12%	16	?
Cc1ccc(C)c(NS(=O)(=O)c2ccc3[nH]c(=O)oc3c2)c1
  11%	-6%	10	-7.4%
Cc1cccc(C(=O)OC(C)C(=O)Nc2ccc(S(=O)(=O)Nc3ncccn3)cc2)c1C (stereo not given)
  0%	.	.	-2.4%
O=C(O)Cc1ccc(C(=O)c2ccc(Cl)cc2Cl)s1
  -6%	-6%	3	-2.3%
Cc1nc(-c2ccc(Cl)cc2)sc1C1(C)CC(c2cccc(F)c2)=NO1 (stereo not given)
  0%	-24%	-7	2.8%
COc1ccc(CCNC(=O)C2CCCN2C(=O)NC2CCCCC2)cc1OC (stereo not given)
  -12%	-5%	6	-1.0%
Cc1ccc(NC(=O)COC(=O)CN2C(=O)NC3(CCCC3)C2=O)cc1F
  2%	.	.	1.8%

Additional records follow.
Fields: Rango dissoc inh	miR-21 FLuc	GLA inh pH 4.5	Rango-impB inh
O=C(NNC(=S)Nc1ccccc1)c1ccccc1[N+](=O)[O-]
  20%	4%	6	0.0%
O=C(Nc1ccccc1)N1CCC(=S)Nc2ccccc21
  10%	-3%	4	-0.1%
COCCCNS(=O)(=O)c1ccc2c(c1)CCN2C(C)=O
  -19%	-4%	-2	1.4%
O=C(CSc1nc2c(c(=O)[nH]1)CCCC2)Nc1ccc(Cl)cc1F
  -7%	-6%	-13	-1.6%
Brc1ccc(N=NNc2ccccc2)cc1
  -4%	-35%	.	-0.8%
Cc1ccc(-c2nnc(Nc3ccc4c(c3)nc(C)n4C)c3ccccc23)cc1
  -11%	-3%	-11	3.7%
COC(=O)C(=O)/C=C(\O)c1c(C)cc(C)cc1C
  7%	0%	1	65µM*
Cc1c(/C(O)=C2/C(=O)C(=O)N(CCN3CCOCC3)C2c2cccnc2)cnn1-c1ccccc1 (stereo not given)
  15%	-3%	0	-2.0%
COC(=O)C1CSC(C(=O)OC)N1C(=O)CN1CC(C)OC(C)C1 (stereo not given)
  2%	-3%	-7	2.1%
O=C(NC(=S)NCCC1=CCCCC1)c1ccccc1Br
  22%	-18%	2	-2.7%

The list continues:
Fields: Rango dissoc inh	miR-21 FLuc	GLA inh pH 4.5	Rango-impB inh
COC(=O)c1cn(-c2cccc(C)n2)cn1
  7%	-15%	6	-2.7%
Cc1csc(Sc2ccc([N+](=O)[O-])cc2C(=O)OCC(=O)NC(=O)NC(C)(C)C)n1
  -2%	-1%	-1	-1.6%
CCOC(=O)C1=C2NC(=O)c3ccccc3N2C(=O)C1
  ?	-6%	-3	?
O=C(NCCC1CCCCN1S(=O)(=O)c1cccs1)C(=O)Nc1cccc(F)c1 (stereo not given)
  -5%	.	.	-2.7%
Cn1c(N)c(C(=O)c2cc(-c3ccncc3)nc3ccccc23)c(=O)n(C)c1=O
  7%	-10%	4	5.3%
Cc1cccc(N2C(=O)C=CC2=O)c1
  2%	.	.	-0.4%
O=C(c1cc2cccc([N+](=O)[O-])c2oc1=O)N1CCOCC1
  3%	0%	1	0.3%
CCCCc1ccc(-c2c(C#N)c(N)nc3c2CCCC3)s1
  16%	-5%	3	-2.7%
CCc1ccc(-c2cc(N)n(-c3ccccc3)n2)cc1
  4%	-41%	7	-1.8%
CCOC(=O)c1ccc(NC(=O)C2=C(C)Nc3nc(CCCO)nn3C2c2cccc(C)c2)cc1 (stereo not given)
  -5%	-4%	-2	3.9%

Later entries:
Fields: Rango dissoc inh	miR-21 FLuc	GLA inh pH 4.5	Rango-impB inh
COCCCNC(=O)C[C@H]1C[C@H](C(=O)N2CCCCC2)[C@@]2(CCc3ccccc3)c3[nH]c4ccc(Cl)cc4c3CCN2C1=O
  -11%	.	.	-3.0%
N#C/C(=C\Nc1ccc2c(c1)OCCO2)c1nc(-c2ccccc2)cs1
  -18%	-8%	1	?
O=C(COc1ccccc1F)NCC(c1ccco1)N1CCCC1 (stereo not given)
  7%	-3%	-1	?
Cc1onc(-c2ccccc2)c1C(=O)Nc1ccon1
  1%	2%	1	-2.6%
CCOC(=O)NN1C(=O)c2ccccc2NC1C (stereo not given)
  -22%	-2%	16	0.6%
CCC(=O)Nc1ccc(Cl)c(NC(=O)c2cccc(OC)c2)c1
  6%	-14%	-3	2.8%
O=C(CSC(=S)N1CCCC1)N1CCN(S(=O)(=O)c2ccccc2F)CC1
  -10%	.	.	3.9%
CC(OC(=O)c1ccc(-n2cnnn2)cc1)C(=O)Nc1ccc(F)c(F)c1F (stereo not given)
  0%	.	.	-3.4%
CC(C)=CCC/C(C)=C/CNC(=O)C[C@H]1C[C@H](C(=O)N2CCCCC2)[C@@]2(C)c3[nH]c4cc(-c5ccco5)ccc4c3CCN2C1=O
  -15%	.	.	-4.0%
CCOC(=O)c1sc2nc(COC(=O)c3c(F)cccc3F)[nH]c(=O)c2c1C
  -7%	-6%	-2	3.6%
CCOC(=O)c1c(Cc2cccc(Cl)c2)c[nH]c1C
  -16%	-14%	-4	?

High-throughput results deposited in PubChem by National Center for Advancing Translational Sciences (NCATS).
